Compound activity (PubChem)
HNF4A DNA FP: change in binding of human HNF4 alpha to DNA. P41235. HNF4a-FITC DNA binding, fluorescence polarization, 1 h. activity change, % at 10 µM. 360,000 tested, 0.3% active. AID 1224865; in the data active = activity change above about 30%, passing the limit was not always enough;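 also: controls were the assay level and a saturating level of protein; the project sought stronger binding though the title names inhibitors; some compounds called inactive have numbers as strong as hits; positive values seem to mean higher polarization but the record does not say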
AF4-AF9 inh: inhibitors of human MLL-AF4/AF9 interaction; 350,000 tested, 0.47% active; P42568; AlphaScreen, biotin-AF4 peptide binding to FLAG-AF9; inhibition, % at 10 µM; AID 651704;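 active = every replicate reaching a set inhibition limit, whatever the replicate mean, cut at about 25% in these data; inconclusive = mean inhibition reaches that limit but some replicates miss it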;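 also: 0% = plate neutral control median and 100% = total signal loss; the record names both 10 and 1 µM as test concentration; the first replicate is given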
Target sequence (P42568 whole entry, looked up): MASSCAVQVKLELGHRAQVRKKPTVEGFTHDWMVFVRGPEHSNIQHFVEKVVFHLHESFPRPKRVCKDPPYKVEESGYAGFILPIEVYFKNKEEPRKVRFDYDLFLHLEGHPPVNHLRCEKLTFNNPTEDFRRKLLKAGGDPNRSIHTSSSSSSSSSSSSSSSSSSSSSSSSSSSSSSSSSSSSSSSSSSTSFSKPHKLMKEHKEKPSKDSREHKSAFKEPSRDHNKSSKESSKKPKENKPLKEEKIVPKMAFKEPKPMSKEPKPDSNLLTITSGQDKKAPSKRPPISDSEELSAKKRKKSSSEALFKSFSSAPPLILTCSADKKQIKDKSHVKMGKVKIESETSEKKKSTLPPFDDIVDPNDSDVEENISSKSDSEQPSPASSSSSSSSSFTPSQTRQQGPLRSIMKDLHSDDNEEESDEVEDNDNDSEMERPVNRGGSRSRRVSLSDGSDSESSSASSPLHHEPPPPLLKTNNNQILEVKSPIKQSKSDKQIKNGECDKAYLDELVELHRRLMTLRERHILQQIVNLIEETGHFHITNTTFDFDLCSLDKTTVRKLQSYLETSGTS
Ecoli growth: E. coli growth inhibition; 330,000 tested, 0.21% active; OD600 absorbance (concentration not given with the values); Escherichia coli growth, OD600, 23 h; stronger effect = lower value;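 active = OD600 absorbance below the run mean of sample wells minus 3.6 SD, in any replicate, cut at about 0.56 in these data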;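 also: stock transfer was 300 nL into about 60 µL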
FGF22 binding: FGF22 (human) thermal shift binding; recombinant FGF22 thermal shift, SYPRO orange fluorescence; percent of sucrose octasulfate shift, DMSO zero; calls only at 9.99 µM; 340,000 tested, 1.5% active; AID 651658;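 active = melting point raised past a set limit in the mean and every replicate; inconclusive = no clear call; three in four hits are not shown here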
Target sequence (Q9HCT0 whole entry, looked up): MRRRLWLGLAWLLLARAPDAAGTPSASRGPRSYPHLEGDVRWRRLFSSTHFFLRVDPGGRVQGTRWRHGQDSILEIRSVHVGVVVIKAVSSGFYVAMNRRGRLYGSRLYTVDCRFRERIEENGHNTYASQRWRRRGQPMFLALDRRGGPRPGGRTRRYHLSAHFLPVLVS
rRNA inh HTS: inhibitors of bacterial rRNA selective over humanized ribosomes; E. coli WT GFP vs humanized-ribosome RFP mutants, fluorescence, 24 h; stronger effect = lower value; DMSO median 0, no signal -100; GFP signal change (wild-type ribosome), % (concentration not given with the values); 350,000 tested, 1.6% active;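 active = significant combined selectivity score with lowered wild-type GFP, culture density cut under 30%, mutant RFP and density less affected; inactive = any of these conditions unmet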; also: one replicate is shown; some compounds called inactive have numbers as strong as hits
ALR inh: inhibitors of human sulfhydryl oxidase ALR; inhibition, % (test concentration not listed); P55789; 290,000 tested, 3.8% active; AID 485317; purified ALR, DTT oxidation, H2O2 HRP-luminol luminescence;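 active = mean and each replicate at 75% or more; inconclusive = only one of the two met; inactive = neither met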;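 also: stock transfer was 7.5 nL into about 7.5 µL; 0% = neutral wells and 100% = wells with inactivated enzyme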
Target sequence (P55789 whole entry, looked up): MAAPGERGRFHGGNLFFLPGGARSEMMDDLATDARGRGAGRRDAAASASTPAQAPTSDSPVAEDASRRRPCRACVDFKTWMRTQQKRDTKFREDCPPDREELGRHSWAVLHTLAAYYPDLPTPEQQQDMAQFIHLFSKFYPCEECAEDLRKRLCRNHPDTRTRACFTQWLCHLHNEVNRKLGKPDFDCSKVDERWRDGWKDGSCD
Vif TR-FRET: HIV-1 Vif–A3G interaction blockers – biochemical, TR-FRET, GST-Vif 1-94, biotin-A3G peptide, dose response retest, primary screen (AID 1117319) | TR-FRET GST-Vif / biotin-A3G peptide binding; higher % means a stronger effect; test concentration not given here; strong numbers were not always called active | one-dose inhibition, %; IC50 in µM for titrated hits | 260,000 tested, 0.57% active;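 active = above the screen mean plus three standard deviations and confirmed in dose response; inconclusive = results disagree or hit not tested in dose response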;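 also: Vif residues 1-94 fused to GST binding biotinylated APOBEC3G peptide 110-148; 0% = full assay without inhibitor and 100% = GST in place of GST-Vif; retest series ran down from 100 µM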
rRNA inh HTS OD600: second read-out of rRNA inh HTS, no call of its own (marks repeat the call); OD600 change, %; measured here: OD600 growth;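 optical density of the mix in the first replicate; 0 = DMSO median and -100 = no signal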
rRNA inh HTS RFP: further read-out of rRNA inh HTS, marked with its call; RFP signal change, %; measured here: RFP humanized mutant strains;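 first replicate; 0 = DMSO median and -100 = no signal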
The depositor's hits bear a star; i = inactive; ? = inconclusive; · = not tested or not shown; & = joins results of further samples. Not all compounds are listed; count on the stated rates, not on these rows.

SMILES	HNF4A DNA FP	AF4-AF9 inh	Ecoli growth	FGF22 binding	rRNA inh HTS	rRNA inh HTS OD600	rRNA inh HTS RFP	ALR inh	Vif TR-FRET
C[C@@H]1CN([C@@H](C)CO)C(=O)c2cc(C3=CCCC3)cnc2O[C@@H]1CN(C)Cc1ccccc1C(=O)O	·	-5.6	·	i	0	6	0.4	·	·
CC(Oc1ccc(Cl)cc1Cl)C(=O)OCn1nnc2ccccc2c1=O (centres undefined)	-2.0	·	0.69	·	·	·	·	15	-3%
c1ccc(NNC2=NCCS2)cc1	4.4	3.4	0.7	i	-9	2	-5.6	91*	·
CC(CN1CCOCC1)(NS(=O)(=O)c1ccccc1)c1ccccc1 (centres undefined)	1.6	6.3	0.7	i	-8	-13	3.2	-17	23%
O=C1c2ccccc2C(=O)N1Cc1nc(-c2ccccc2)no1	1.0	·	0.72	·	·	·	·	0	-9%
Cc1ccccc1-c1ncc(CN2CCN(C3CCCC3)C(CCO)C2)cn1 (centres undefined)	0.0	-9.7	0.71	·	10	6	2.0	0	15%
Cc1ccc(NC(=O)CN(C)C(=O)COC(=O)CNS(=O)(=O)c2ccc(F)c(F)c2F)cc1	4.6	-17	0.71	i	6	8	-2.6	·	3%
COc1cccc(N(CC(=O)NC2CCCCC2)C(=O)CCC(=O)Nc2nc(C)cs2)c1	-0.4	-0.8	0.69	i	-4	-17	-1.3	0	·
CCC(=O)N/C(N)=N/c1nc(C)c2cc(C)c(C)cc2n1	0.9	0.4	0.63	i	-8	-8	-2.9	·	·
CCN(CC)CCn1c(=S)[nH]c2ccccc2c1=O	-1.6	·	0.7	·	·	·	·	14	4%
COc1ccc(/C=N/NC(=O)Nc2cccc3nsnc23)cc1OC	9.1	-10	·	i	2	11	5.7	-19	·
CC(=O)Nc1ccc(Oc2ccc3nc(C)[nH]c3c2)cc1	5.8	·	0.77	·	·	·	·	-8	5%
CCOc1ccc(C(C(=O)NC(C)(C)C)N(CCOC)C(=O)CCC(=O)Nc2ccccn2)cc1 (centres undefined)	-1.5	1.5	0.69	i	1	-3	-0.9	-5	·
OCC1CCCC(n2cnc3c(=S)nc[nH]c32)O1 (centres undefined)	3.5	-5.1	0.66	i	6	2	1.4	·	-6%
CCSc1nc2ccccc2n1C(=O)Oc1ccccc1	-1.1	·	0.75	·	·	·	·	·	29%
FC(F)(F)c1cc(-c2ccccc2)nc(-n2cncn2)n1	-2.1	-68	0.73	·	20	13	-3.8	-2	-1%
O=C(Nc1ccsc1C(=O)N1CCCC1)c1ccccc1	-3.6	-1.0	0.73	i	37	21	3.6	·	-3%
COc1ccc(S(=O)(=O)Nc2cccc3c2O[C@@H](CN(C)Cc2ccccc2)[C@H](C)CN([C@@H](C)CO)C3=O)cc1	·	-6.9	·	i	-1	1	-1.3	·	·
O=C(Nc1ccc(S(=O)(=O)N2CCCCC2)cc1)c1cccnc1Cl	-4.3	0.0	0.67	·	-1	-8	-2.7	-15	5%
Cc1cc(C)c(C(=O)CSc2nnc(-c3ccccc3Br)o2)cc1C	-2.9	·	0.79	·	·	·	·	·	-3%
CC=Cc1ccc2n(c1=O)C[C@H]1[C@H](CO)[C@@H](C(=O)NCC3CC3)[C@@H]2N1CC1CCOCC1 (mixture of isomers)	·	0.1	·	i	3	9	-2.1	·	·
C[C@H]1CN([C@@H](C)CO)C(=O)c2cc(-c3cccnc3)cnc2O[C@H]1CN(C)Cc1ccc(Oc2ccccc2)cc1	0.9	7.7&4.7&6.0	·	i	-6&-2	1&-4	-0.1&-0.4	·	·
Cc1onc(-c2ccccc2Cl)c1C(=O)N1CCN(Cc2ccc3c(c2)OCO3)CC1	-2.3	5.1	0.68	i	-20*	8.5*	-0.4*	-29	5%
C/C(=N\NC(=O)c1ccc([N+](=O)[O-])cc1)c1cccc([N+](=O)[O-])c1	1.0	-3.1	·	i	11	5	-1.3	-15	2%
O=C(c1nnc(-c2ccc(Cl)cc2)o1)C1CCCC1	-3.0	-0.6	0.66	i	17	8	2.7	-12	-5%
O=C(NC1CCCCCC1)C(Cc1ccccc1)n1cccc1 (centres undefined)	1.8	-4.3	0.69	i	-24	-22	-5.7	0	?
CCn1cc(C(=O)O)c(=O)c2cc(F)c(N3CCN(C(=S)NC(=O)c4ccc(F)cc4)CC3)cc21	-1.6	2.8	0.063*	·	-53	-74	-32	1	0%
Cc1ccc(CN2CCN(C/C(Cl)=C/c3ccccc3)CC2CCO)o1 (centres undefined)	-4.1	4.8	0.7	i	-8	-10	-5.0	-4	-6%
CCc1cccc(C)c1NC(=O)c1cccnc1	-2.3	3.1	0.65	i	8	10	1.3	-2	·
Cn1cnc2c(cnn2-c2ccccc2)c1=O	0.8	-3.7	0.67	i	6	9	-3.5	1	1%

Whole records from above. Order of screens: HNF4A DNA FP	AF4-AF9 inh	Ecoli growth	FGF22 binding	rRNA inh HTS	rRNA inh HTS OD600	rRNA inh HTS RFP	ALR inh	Vif TR-FRET
CC=Cc1ccc2n(c1=O)C[C@H]1[C@H](CO)[C@@H](C(=O)NCC3CC3)[C@@H]2N1CC1CCOCC1 (mixture of isomers) across the screens: ·	0.1	·	i	3	9	-2.1	·	·
O=C(NC1CCCCCC1)C(Cc1ccccc1)n1cccc1 (centres undefined) across the screens: 1.8	-4.3	0.69	i	-24	-22	-5.7	0	?
O=C(c1nnc(-c2ccc(Cl)cc2)o1)C1CCCC1 across the screens: -3.0	-0.6	0.66	i	17	8	2.7	-12	-5%
Cn1cnc2c(cnn2-c2ccccc2)c1=O across the screens: 0.8	-3.7	0.67	i	6	9	-3.5	1	1%

(cont.)
SMILES	HNF4A DNA FP	AF4-AF9 inh	Ecoli growth	FGF22 binding	rRNA inh HTS	rRNA inh HTS OD600	rRNA inh HTS RFP	ALR inh	Vif TR-FRET
Cc1nc2ccc(C(=O)N3CCN(c4ccccc4)CC3)cn2c1N(C)C(=O)CCc1ccccc1	5.3	-22	·	i	13	11	0.3	·	·
O=C(NC1CCN(Cc2ccccc2)CC1)c1ccc(S(=O)(=O)NCc2ccco2)cc1	0.3	0.9	0.67	i	5	0	1.1	-20	-2%
CC(NS(=O)(=O)c1cc2c3c(c1)CCC(=O)N3CCC2)c1ccccc1 (centres undefined)	0.3	-0.9	0.67	i	-10	-10	-1.2	·	-4%
Cc1cc(Nc2ccc(F)cc2Cl)n2ncnc2n1	-1.2	-2.6	0.73	i	7	6	-1.8	-6	16%
C=CCn1c(SCC(=O)NCc2ccc3c(c2)OCO3)nnc1-c1cccnc1	-2.2	0.9	0.72	i	4	-1	-0.7	-2	-2%
Cc1ccc(N2CC(C(=O)Nc3cccnc3)CC2=O)cc1Cl (centres undefined)	-2.5	1.5	0.65	i	-3	0	1.7	3	1%
Cc1ccccc1CNC(=O)Cc1ccccc1[N+](=O)[O-]	1.9	·	0.64	·	·	·	·	1	10%
COc1cccc(CNC(=O)[C@@H]2CCCN2C(=O)[C@H]2CCCCN2S(=O)(=O)c2ccc(OC)c(C)c2)c1	-0.7	-0.6	·	i	0	-15	15	·	·
S=C(NCCCN1CCOCC1)N(Cc1ccccc1)Cc1ccccc1	0.6	4.4	0.69	i	0	-7	1.4	-4	-5%
Cc1ccc(C(=O)Nc2cccnc2)cc1Cl	-0.3	2.1	0.62	i	-10	1	-1.5	62	-5%
Cc1ccc2ncnc(Nc3cccc(C(=O)O)c3)c2c1	0.4	-2.1	0.66	i	11	8	0.2	0	4%
CC(C)(C)c1ccc(S(=O)(=O)N2CCN(C(=O)C3=COCCO3)CC2)cc1	-0.6	1.0	0.71	i	·	·	·	1	·
O=C(NCc1ccccc1)c1ccc(NC(=O)C2CCCCC2)cc1	-2.0	-1.8	·	i	6	23	7.4	·	3%
C=CCNS(=O)(=O)c1nc(C)c(Cl)c(C)c1C#N	0.7	·	0.69	·	·	·	·	-8	5%
C[C@H]1CN([C@@H](C)CO)C(=O)c2cc(NS(C)(=O)=O)ccc2O[C@H]1CN(C)S(C)(=O)=O	·	-1.4	·	i	5	14	2.2	·	·
COCc1cn(CC[C@@H]2CC[C@@H](NC(=O)CCN3CCCCC3)[C@H](CO)O2)nn1	·	-12	·	i	0	7	-1.5	·	·
O=C(NCc1ccc2c(c1)OCO2)C1CCCN1C(=O)Nc1cccc(F)c1 (centres undefined)	-2.6	·	0.68	·	·	·	·	-1	19%
CCCCC#Cc1ccccc1CC(=O)Nc1ccccc1	2.1	2.2	0.67	i	-7	-5	-6.6	-4	-1%
COc1cc(/C(C)=N/NC(=O)C(O)(c2ccccc2)c2ccccc2)ccc1O	5.0	0.5	·	i	-5	9	-1.8	98*	5%
COc1ccccc1NC(=O)CSCc1ccc([N+](=O)[O-])cc1	-4.3	·	0.66	·	·	·	·	·	?
C[C@@H]1CCCCO[C@H](CN(C)S(=O)(=O)c2ccc(Cl)cc2)[C@H](C)CN([C@@H](C)CO)C(=O)c2cc(NC(=O)CCC(F)(F)F)ccc2O1	·	0.7	·	i	-3	0	-2.0	·	·
CC1=C(C#N)C(/C=N/OCc2ccc(F)cc2Cl)CC(=O)N1 (centres undefined)	-1.4	-0.9	·	i	2	0	3.6	0	7%
Cc1cc(C)nc(NS(=O)(=O)c2ccc(NC(=O)c3ccc(S(=O)(=O)N4CCOCC4)cc3)cc2)n1	0.8	-0.8	0.73	i	7	-1	3.8	-4	1%
CC(=NCCCn1ccnc1)c1c(-c2ccccc2)[nH]n(-c2nc3ccccc3s2)c1=O	1.4	·	0.7	·	·	·	·	10	-6%
CC(C)n1c(=O)[nH]c(=O)n1C(C)C	-0.8	-0.8	0.67	i	0	11	3.9	·	-2%
Cn1c(SC2C(=O)CC(C)(C)CC2=O)nnc1-c1ccco1	1.8	8.8	0.66	i	10	4	-2.0	1	2%
FC(F)(F)c1cc(C(F)(F)F)c2ccc(N3CCOCC3)nc2n1	0.4	-0.9	0.69	i	-4	0	-1.6	1	-6%
CCCCNC(=S)N/N=C/c1ccccc1F	-4.7	3.9	·	i	-11	-26	-0.2	1	-6%
CCNc1nc(OCCNC(C)=O)nc(N(C)C)n1	3.7	·	0.7	·	·	·	·	1	-1%
Cc1ccc(C(=O)NCC(=O)OCCCOC(=O)CNC(=O)c2ccc(C)cc2)cc1	1.7	-1.6	0.63	i	-3	0	0.9	·	-6%
CN(Cc1nc(-c2ccccn2)no1)S(=O)(=O)c1ccc(Br)cc1	0.4	·	0.71	·	·	·	·	-15	-2%
N#C[C@H]1[C@@H](c2ccccc2C2=CCCC2)[C@@H](CO)N1C(=O)C1CCCC1	·	-0.8	·	i	2	-16	5.7	·	·
NC(=O)COC(=O)[C@@H]1CC(O)CN1S(=O)(=O)c1ccc2c(c1)OCCO2 (some centres undefined)	0.6	-1.4	0.69	i	7	5	-8.3	·	6%
Cc1noc(C)c1NC(=O)N(C)C[C@@H]1Oc2ccc(NS(=O)(=O)c3ccc(F)cc3)cc2C(=O)N([C@@H](C)CO)C[C@H]1C	·	-1.5	·	i	2	4	0.0	·	·
COc1ccc(S(=O)(=O)N2CCC(C(=O)NCCC(=O)NCc3ccccc3OC)CC2)cc1	-1.5	-1.3	0.67	i	1	4	1.5	-17	·
Cc1ccc(-c2nc(CN3CCCCC3)cc(CN3CCCCC3)c2O)cc1	2.7	7.0	0.68	i	12	-2	-1.3	-5	12%
c1ccc(-n2nnnc2-c2cnc(-c3cccnc3)nc2-c2cccs2)cc1	-2.0	·	0.71	·	·	·	·	-2	·
O=C(O)Cn1cc(/C=C2/SC(=O)N(CC(=O)N3CCCCCC3)C2=O)c2ccccc21	·	-5.8	·	i	7	1	-1.7	-9	-2%
